D2 potentiator: Beta-Arrestin HTS for Positive Allosteric Modulators of the Human D2 Dopamine Receptor: Potentiators; D(2) dopamine receptor (Homo sapiens), P14416; DiscoveRx D2 beta-arrestin cells, luminescence, 90 min; 100% = 57 uM dopamine signal; potentiation, % (no concentration beside the values); 360,000 compounds, 0.23% hits; active = potentiation of 50% or more; inconclusive = 30% to 50%; inactive = 30% or less;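 also: compound concentration not given in the record; tested on top of an EC20 dose of dopamine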
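PathHunter beta-arrestin assay in DiscoveRx D2 cells. Compounds were added with an EC20 of dopamine (50 nM final) for 90 min at 37 deg C. Luminescence was read 1 h after detection reagent, with 57 uM dopamine as the EC100 control.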
Six1-Eya2 blk: qHTS Assay for Inhibitors of the Six1/Eya2 Interaction. activity change, % (test concentration not listed). AlphaScreen GST-Six1/His-Eya2 binding, biochemical; stronger effect = lower value; control for the full effect not named in the record. Homeobox protein SIX1 (Homo sapiens) + Protein phosphatase EYA2 (Homo sapiens), …. 360,000 compounds, 0.56% hits; in the data active = activity change below about -65%; inconclusive = about -30% to -65%; inactive = above about -30%; also: % is scaled to controls: 0 for no effect and ±100 for the full control effect
Target sequence (O00167 whole entry, looked up): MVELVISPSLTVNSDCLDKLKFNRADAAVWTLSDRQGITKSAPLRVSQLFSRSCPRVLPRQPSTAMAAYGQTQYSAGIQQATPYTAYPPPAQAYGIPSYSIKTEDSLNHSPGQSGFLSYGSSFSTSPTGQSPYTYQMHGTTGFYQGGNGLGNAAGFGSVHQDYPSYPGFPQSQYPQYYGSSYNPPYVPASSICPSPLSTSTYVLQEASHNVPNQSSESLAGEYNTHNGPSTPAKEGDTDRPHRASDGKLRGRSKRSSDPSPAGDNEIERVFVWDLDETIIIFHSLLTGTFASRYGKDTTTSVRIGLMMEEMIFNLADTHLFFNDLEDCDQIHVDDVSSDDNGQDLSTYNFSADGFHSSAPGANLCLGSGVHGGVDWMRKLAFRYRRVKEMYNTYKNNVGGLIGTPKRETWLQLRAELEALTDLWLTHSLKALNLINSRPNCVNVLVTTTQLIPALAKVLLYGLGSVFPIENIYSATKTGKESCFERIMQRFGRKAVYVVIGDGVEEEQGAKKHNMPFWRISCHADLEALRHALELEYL
Target sequence (Q15475 whole entry, looked up): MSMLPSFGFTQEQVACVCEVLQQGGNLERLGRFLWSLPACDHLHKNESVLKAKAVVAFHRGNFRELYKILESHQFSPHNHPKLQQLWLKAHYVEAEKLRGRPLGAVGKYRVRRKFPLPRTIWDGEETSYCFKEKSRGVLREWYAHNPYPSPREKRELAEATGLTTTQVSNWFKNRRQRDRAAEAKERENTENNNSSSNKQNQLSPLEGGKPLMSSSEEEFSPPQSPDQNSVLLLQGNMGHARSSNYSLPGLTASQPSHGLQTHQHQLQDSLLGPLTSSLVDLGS
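Compounds are tested against tagged Six1 and Eya2 proteins bridged by glutathione donor and nickel acceptor beads; after a one-hour incubation at 37 °C without light, AlphaScreen emission is recorded.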
TRPV1 PAM: HTS Assay for Compounds that Act as Potentiators of the Vanilloid Receptor 1; Transient receptor potential cation channel subfamily V member 1 (Homo sapiens), Q8NER1; TRPV1-expressing cells, Fluo-8 calcium influx, capsaicin EC20 potentiation; host cell line not named in the record; control for the full effect not named in the record; potentiation, % at 8.33 µM; 320,000 compounds, 0.02% hits; active means potentiation above 80%; inconclusive means 30% to 80%; inactive means below 30%; also: 0% is about no effect
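Cells expressing TRPV1 were dye-loaded with Fluo-8 and read kinetically: 10 s baseline, 3 min after compound (agonist portion), then 2 min after EC20 capsaicin (allosteric enhancer portion). Calcium-bound dye fluorescence at 480/520 nm.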
TRPML1 agonist: qHTS for Agonists of the Human Mucolipin Transient Receptor Potential 1 (TRPML1); TRPML1-expressing cells, Ca2+ dye fluorescence, FDSS; host cell line not named in the record; reference of the full effect not given here; activation, % (no concentration beside the values); 410,000 compounds, 0.12% hits; AID 624414, 2012; in the data active = activation above about 50%; inconclusive = about 30% to 50%; inactive = below about 30%; also: 0% is about no effect; the text of the record puts the active cut at 80%
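Kinetic FDSS Ca2+ read in Tet-induced TRPML1-DL cells (ABD Ca8 dye plus quencher, 45-90 min RT loading): baseline, then compound, then 110 s agonist window; EC80 agonist 54-4 at 4uM final added afterwards for a 110 s antagonist window.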
CtBP-E1A blk: qHTS Assay for Inhibitors of the CtBP/E1A Interaction | AlphaScreen GST-E1A/His-CtBP binding, 1536-well; stronger effect = lower value; control for the full effect not named in the record | activity change, % (concentration not given with the values) | 340,000 compounds, 0.49% hits | AID 651724, 2012; in the data active means activity change below about -65%; inconclusive means about -30% to -65%; inactive means above about -30%; also: % is scaled to controls: 0 for no effect and ±100 for the full control effect
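AlphaScreen with 125 nM GST-E1A and 125 nM His-CtBP (5X stocks) in Tris pH 8.0, 300 mM NaCl, BSA, Tween 20, TCEP. Compounds preincubated 2 h at 37 deg C, then glutathione donor/nickel acceptor beads added for 1 h at 37 deg C in dark.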
TRPML1 inh: qHTS for Inhibitors of the Human Mucolipin Transient Receptor Potential 1 (TRPML1); Mucolipin-1 (Homo sapiens), Q9GZU1; TRPML1-inducible cells, Ca2+ dye fluorescence, FDSS; stronger effect = lower value; inhibition of EC80 agonist-evoked calcium signal; activity change, negative = inhibition, % (test concentration not listed); 390,000 compounds, 0.02% hits; AID 624415, 2012; in the data active means activity change below about -50%; inconclusive means about -30% to -50%; inactive means above about -30%;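 also: stimulus is agonist 54-4 at its EC80 concentration; % is scaled to controls: 0 for no effect and ±100 for the full control effect; compound concentration not given in the record; the text of the record puts the active cut at -80%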
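Calcium fluorescence in TRPML1-DL cells induced overnight with Tet: a 110 s read after compound pin addition, then a 110 s antagonist read after challenge with 54-4 at 4 uM final (EC80).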
The depositor's hits bear a star; u = inconclusive; x = no result given; & = joins results of further samples.

SMILES	D2 potentiator	Six1-Eya2 blk	TRPV1 PAM	TRPML1 agonist	CtBP-E1A blk	TRPML1 inh
COc1cccc(/C=C2/Sc3ccc(C(=O)NCCCN4CCCC4)cc3NC2=O)c1	-19	-9	19	0.4	x	-4
Cc1ccc(O)c(NC(=O)c2ccc3c(c2)C(=O)N(Cc2ccco2)C3=O)c1	-7	2	-5	0.4	0	30
C#CCOCCOCCOCCNc1nc(N2CCN(C(=O)[C@H](CC(N)=O)n3cc(C(N)[C@@H](C)CC)nn3)CC2)nc(N2CCN(C(=O)[C@H](CCCCN)n3cc([C@@H](N)CC(N)=O)nn3)CC2)n1 (stereo partly specified)	-10	-6	x	-0.4	-14	18
Cc1ccc2c(c1)NC(=O)C(CC(=O)NC1CCCCC1C)O2 (stereo unspecified)	-1	4	-9	0.1	6	31
Cc1c(CC(=O)N[C@@H](C)C(=O)O)c(=O)oc2cc3c(cc12)CCC(C)(C)O3	-3	1	-31	0.4	x	9
Cc1ccc(-n2c(-c3cnccn3)n[nH]c2=S)c(Br)c1	-4	3	13	-0.6	8	3
O=c1oc(Cl)c(Cl)c2ccccc12	-3	-1	-9	-0.4	5	-5
COc1ccc2sc(-c3ccc(SC)cc3)c(C#CCO)c2c1	3	20	x	0.3	9	-1
O=c1[nH]nc(SCc2nnc(-c3ccc([N+](=O)[O-])cc3)o2)n1C1CCCCC1	2	-4	19	1.7	0	u
CC(=NNC(=S)Nc1ccccc1Cl)c1ccccn1	2	-90*	x	2.5	-66*	26
CC(NC(=O)c1ccc2c(c1)OCO2)c1cccc(C(F)(F)F)c1 (stereo unspecified)	-2	-1	-17	-0.8	8	16
COc1ccc(-c2noc(Cc3ccccc3OC)n2)cc1	-9	28	-6	5.2	35	6
OCCC1CN(Cc2ccc(F)cc2)CCN1CCCc1ccccc1 (stereo unspecified)	-4	-8	5	0.3	32	-22
Cc1nc2ccccc2c(=O)n1Nc1cccc(Cl)c1	-1	5	1	0.2	10	1
CCOC(=O)C1=NNC2(c3ccc(Cl)cc3)C(=O)N(c3ccc(C)cc3)C(=O)C12 (stereo unspecified)	-22	-1	-1	1.6	2	18
O=C1C=CC(=O)N1c1ccc(OC(F)F)cc1	-46	-10	0	-0.1	3	0
CCOc1cc(C(=O)NCCCn2ccnc2)cc(OCC)c1OCC	-29	5	0	-0.6	-1	-12
C/C(=N\NC(=O)c1ccccc1O)c1cccc(NC(=O)c2ccccc2)c1	1	1	-17	x	5	x
O=C(N/C(=C/C=C/c1ccccc1)C(=O)N1CCOCC1)c1ccccc1Br	-12	1	27	-0.7	-15	14
COc1ccc(OCc2nnc3n2N=C(c2ccc(C)cc2)CS3)cc1	-3	-9	22	2.1	-9	16
Cc1ccc(-n2c(SCC(=O)O)nc3c(sc(=S)n3-c3ccc(C)c(C)c3)c2=O)cc1	-1	u	-1	-0.3	x	-13
Cn1nnc(NC(=S)NC(=O)c2cc(Cl)ccc2Cl)n1	-44	13	-4	-0.6	8	2
O=C1CCc2cc(S(=O)(=O)NCc3ccccc3)cc3c2N1CC3	10	-1	-2	-0.6&-0.4	2	26&10
O=C(CCc1ccc(O)cc1)NN=Cc1ccc2c(c1)OCO2	-7	1	x	0.1	2	4
CC12CCC(=O)N1C(C(=O)NNC(=O)COc1cccc(C(F)(F)F)c1)CS2 (stereo unspecified)	u	6	-8	0.5	22	-9
CC1=NN(Cc2ccccc2)C(=O)C1C(c1ccncc1)C(C#N)C#N (stereo unspecified)	-9	-10	u	-0.5	-5	-8
O=C(CSc1ncnc2scc(-c3ccccc3)c12)NC1CCS(=O)(=O)C1 (stereo unspecified)	0	-2	-5	0.8	2	-4
COc1ccc(C(=O)Nc2cccc(C)c2)cc1S(=O)(=O)N1CCOCC1	-2	-3	-15	0.0	5	26
O=C(c1cc(-c2ccncc2)nc2ccc(Br)cc12)N1CCN(Cc2ccc3c(c2)OCO3)CC1	-3	4	-14	-0.2	10	-1
CC(=O)N1CCN(c2ccc(NC(=O)c3ccco3)cc2)CC1	-5	12	-34	-0.5	6	14

4 entries from above, as labelled records.
> Cn1nnc(NC(=S)NC(=O)c2cc(Cl)ccc2Cl)n1
  D2 potentiator: -44 | Six1-Eya2 blk: 13 | TRPV1 PAM: -4 | TRPML1 agonist: -0.6 | CtBP-E1A blk: 8 | TRPML1 inh: 2
> CC12CCC(=O)N1C(C(=O)NNC(=O)COc1cccc(C(F)(F)F)c1)CS2 (stereo unspecified)
  D2 potentiator: u | Six1-Eya2 blk: 6 | TRPV1 PAM: -8 | TRPML1 agonist: 0.5 | CtBP-E1A blk: 22 | TRPML1 inh: -9
> O=C(CSc1ncnc2scc(-c3ccccc3)c12)NC1CCS(=O)(=O)C1 (stereo unspecified)
  D2 potentiator: 0 | Six1-Eya2 blk: -2 | TRPV1 PAM: -5 | TRPML1 agonist: 0.8 | CtBP-E1A blk: 2 | TRPML1 inh: -4
> O=C(c1cc(-c2ccncc2)nc2ccc(Br)cc12)N1CCN(Cc2ccc3c(c2)OCO3)CC1
  D2 potentiator: -3 | Six1-Eya2 blk: 4 | TRPV1 PAM: -14 | TRPML1 agonist: -0.2 | CtBP-E1A blk: 10 | TRPML1 inh: -1

(continued)
SMILES	D2 potentiator	Six1-Eya2 blk	TRPV1 PAM	TRPML1 agonist	CtBP-E1A blk	TRPML1 inh
Cc1ccc(S(=O)(=O)NC(=O)Nc2ccc(F)c(F)c2)cc1	-2	8	-4	1.1	-2	17
CCOc1nc(-c2ccccc2)ccc1-c1noc(-c2cccnc2)n1	-2	7	x	0.1	-6	-18
OCC[C@@H]1C[C@@H](O)[C@H](O)[C@@]2(OCCc3ccccc32)O1	-5	5	15	0.1	3	-9
COc1ccc(NC(=O)c2ccc3c(c2)OCO3)cc1Cl	-15	2	-17	-1.2	3	17
CC(NC(=O)OC(C)(C)C)C(=O)Oc1cc2oc(=O)cc(-c3ccccc3)c2cc1Cl (stereo unspecified)	10	12	14	0.2	-3	12
NCCCn1cnc2ccccc21	-1	5	0	0.0	10	-1
COc1ccc(Br)cc1C(=O)NC(=S)Nc1cc(-c2nc3ccccc3[nH]2)ccc1C	1	-4	10	-0.2	-8	39
NC(=O)C1(N2CCCCC2)CCN(C(=O)CSc2nc(C(F)(F)F)cc(=O)[nH]2)CC1	-12	19	-22	-0.4	-4	-3
CC(C)(C)c1nnc(NC(=O)NS(=O)(=O)c2ccccc2)s1	-9	14	-7	0.7	-1	5
CCN(CC)CCCNC(=O)CSc1c2c(nc3cc(Cl)ccc13)CCCC2	-12	-1	0&2	-0.5&1.4	7	-10&-5
Cc1cc(C)c2c(N)c(-c3nnc(SCc4ccc(Cl)cc4)n3C)sc2n1	1	9	6	0.5	4	5
COc1ccc(NC(=O)COC(=O)c2cc(OC)c(OC)c(OC)c2)c([N+](=O)[O-])c1	0	6	-1	x	-7	x
Cn1c(Cl)c(/C=N/OC(=O)C2CC2)c2ccccc21	-19	4	4	1.4	2	4
COc1ccc(C(=O)N2CCC(n3nccc3NC(=O)C3CCOC3)CC2)cc1 (stereo unspecified)	-6	-1	-6	-0.3	-6	10
Cc1cccc([C@@H]2[C@@H]3C(=O)N(Cc4ccccc4)C(=O)[C@@H]3[C@]3(CC(C)C)C(=O)N(c4cccc(Cl)c4)C(=O)N23)c1	-4	-9	5	-0.2	-4	-2
O=C(NCc1ccc(Cl)nc1)c1ccc2nc([C@@H]3O[C@H](CO)[C@H](O)[C@H](O)[C@H]3O)[nH]c2c1	-7	2	x	-0.2	2	x
Cc1sc2nc[nH]c(=O)c2c1-c1ccc(F)cc1	-38	15	2	1.0	x	6
COc1ccc(C2CC3(O)NC(=O)C(C#N)(C3C)C2(C#N)C#N)cc1 (stereo unspecified)	3	-1	-19	0.9	x	5
COc1cccc(C(c2sc3nc(C)nn3c2O)N2CCN(c3ccccc3F)CC2)c1 (stereo unspecified)	-3	-11	5	-0.1	-6	-7
CNC[C@@H]1OCc2ccccc2-c2ccccc2C(=O)N([C@@H](C)CO)C[C@@H]1C	-5	4	x	0.2	-6	13
O=C(CSc1nc(=O)n2ccccc2n1)OCc1ccccc1	-25	5	-1	-0.1	1	-5
O=C1c2ccccc2-c2onc3ccc(NCCCn4ccnc4)c1c23	67*	-78*	-7	75*	14	6
CCNC(=S)N1CCC(C(=O)c2ccc(F)cc2)CC1	-23	8	x	-0.6	-2	-26
Cc1cc(C)c2oc(=O)cc(CN3CCN(Cc4ccc5c(c4)OCO5)CC3)c2c1	-13	9	11	1.2	-1	-12
CSc1n[nH]c(NCc2ccccc2)n1	-9	-7	8	-0.2	1	9
Cc1ccccc1Cc1c(C)nc2c(C(=O)N3CCN(Cc4ccc5c(c4)OCO5)CC3)cnn2c1C	1	-9	x	0.8	-14	-5
COc1ccc(C2/C(=C(/O)c3ccc4c(c3)CC(C)O4)C(=O)C(=O)N2Cc2cccnc2)cc1 (stereo unspecified)	-3	-1	5	0.4	0	-8
COc1ccc(CC(=O)N2CCN(c3ccccn3)CC2)cc1	-15	1	21	1.0	6	5
COc1cc(O)c(C(C)=O)c(OC)c1	-1	27	x	-0.5	30	-1
CCN1CCN(Cc2nc3c(c(=O)n(C)c(=O)n3C)n2C(C)C(C)=O)CC1 (stereo unspecified)	13	7	1	3.4	2	22
CCN1CC(CN(C)Cc2nc(-c3cccs3)no2)CC1=O (stereo unspecified)	3	-6	-3	0.0	5	27
O=C(Nc1ccc2c(c1)oc1ccccc12)N1CCOCC1	-15	-2	x	-0.4	0	5
COC(=O)c1ccccc1S(=O)(=O)N1Cc2cc([N+](=O)[O-])ccc2Oc2ccccc21	-18	-22	0	-0.5	-11	4
CC1(c2ccc(OCC(N)=O)cc2)NC(=O)NC1=O (stereo unspecified)	-1	7	1	0.2	0	1
CCC(Sc1nc2ncccc2[nH]1)C(=O)N1CCOCC1 (stereo unspecified)	-9	2	29	-0.1	6	11
COc1ccc(Br)cc1/C=N/NC(=O)c1ccc(COc2ccc3c(c2)CCC3)o1	10	1	x	-0.5	6	25
Cc1cccc(-c2noc(CCCC(=O)N3CCOCC3)n2)c1	-1	5	-15	1.5	5	-3
O=C(NCc1ccccc1CN1CCCC1)c1cc2cc(Cl)ccc2o1	-3	-2	10	2.4	-2	-16
CCOC(=O)c1c(-c2ccccc2)oc2ccc(O)c(CN(C)C)c12	-35	2	5	-0.1	1	-2
COc1ccc(S(=O)(=O)Nc2c(C)n(C)n(-c3ccccc3)c2=O)c(Cl)c1Cl	-31	13	u	0.1	x	11
Brc1ccsc1/C=N/Nc1ccccc1	8	-3	x	-0.6	-6	-2
Cc1c(Br)cc(C(=O)OC2CCN(C)CC2)c(C)c1C	-18	-1	3	0.3	1	39
Cc1sc2ncnc(SCC(=O)NNC(=O)COc3cccc4ccccc34)c2c1C	0	3	0	-0.3	7	-14
